Screens as filed in PubChem.
Ecoli growth = inhibitors of Escherichia coli growth; 0.21% of 330,000 active; OD600 absorbance (concentration not given with the values); OD600, 23 h; active compounds read low;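 active = OD600 absorbance below the run mean of sample wells minus 3.6 SD, in any replicate, cut at about 0.56 in these data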;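 note: stock transfer was 300 nL into about 60 µL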
UCH37 inh = blocks the human deubiquitinase UCH37. Q9Y5K5. purified proteasome/UCH37, Ub-AMC cleavage fluorescence. inhibition, % (concentration not given with the values). 0.33% of 330,000 active;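 active = mean of two replicates above 20%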;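 note: 0% = compound-free wells with enzyme and 100% = wells lacking proteasome; stock transfer was 100 nL into about 20 µL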
Target sequence (Q9Y5K5 whole entry, looked up): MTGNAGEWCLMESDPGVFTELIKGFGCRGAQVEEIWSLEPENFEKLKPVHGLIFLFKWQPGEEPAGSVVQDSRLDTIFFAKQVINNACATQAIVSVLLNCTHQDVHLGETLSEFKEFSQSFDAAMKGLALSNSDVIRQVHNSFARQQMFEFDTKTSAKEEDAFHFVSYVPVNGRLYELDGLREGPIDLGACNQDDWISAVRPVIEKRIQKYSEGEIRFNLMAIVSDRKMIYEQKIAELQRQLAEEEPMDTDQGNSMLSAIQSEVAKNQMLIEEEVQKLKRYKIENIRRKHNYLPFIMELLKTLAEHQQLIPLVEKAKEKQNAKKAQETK
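System: Proteasome-associated human UCH37 deubiquitinase; Input: 0.15 nM proteasome in added enzyme buffer; Also added: Ub-AMC substrate from 1 µM stock; Incubation: 30 min compound-proteasome preincubation then 25 min substrate reaction, room temperature; Detection: fluorescence, ex 355 nm, em 460 nm; Read-out: % inhibition of Ub-AMC cleavage fluorescence; Benchmarks: no-proteasome and no-compound wells.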
Vif A3G = inhibitors of Vif binding to APOBEC3G peptide, primary screen, biochemical, TR-FRET, GST-Vif 1-94, biotin-A3G peptide, dose response retest (AID 1117319) | TR-FRET GST-Vif / biotin-A3G peptide binding; higher % means a stronger effect; test concentration not given here; strong numbers were not always called active | one-dose inhibition, %; IC50 in µM for titrated hits | 0.57% of 260,000 active;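 active = above the screen mean plus three standard deviations and confirmed in dose response; inconclusive = results disagree or hit not tested in dose response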;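 note: Vif residues 1-94 fused to GST binding biotinylated APOBEC3G peptide 110-148; 0% = full assay without inhibitor and 100% = GST in place of GST-Vif; retest series ran down from 100 µM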
HNF4A DNA FP = change in binding of human HNF4 alpha to DNA; P41235; HNF4a-FITC DNA binding, fluorescence polarization, 1 h; activity change, % at 10 µM; 0.3% of 360,000 active; in the data active = activity change above about 30%, passing the limit was not always enough;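 note: controls were the assay level and a saturating level of protein; the project sought stronger binding though the title names inhibitors; some compounds called inactive have numbers as strong as hits; positive values seem to mean higher polarization but the record does not say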
RanGTP-Imp inh = disruptors of Ran-importin-beta complex formation – biochemical, FRET, CFP-Ran, YFP-importin-beta, homogeneous, primary screen; cell-free CFP-Ran/YFP-importin-beta FRET ratio; inhibition, % (no concentration beside the values); 1.1% of 300,000 active;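 active = most replicates above 15%; inconclusive = exactly half above 15%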;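 note: 0% = DMSO wells and 100% = Ran loaded with GDP instead of GTP; wells of about 40 µL received 100 nL stock; the first replicate is given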
FGF22 binding = shifts melting point of recombinant human FGF22; 1.5% of 340,000 active; Q9HCT0; recombinant FGF22 thermal shift, SYPRO orange fluorescence; percent of sucrose octasulfate shift, DMSO zero; calls only at 9.99 µM;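 active = melting point raised past a set limit in the mean and every replicate; inconclusive = no clear call; three in four hits are not shown here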
Target sequence (Q9HCT0 whole entry, looked up): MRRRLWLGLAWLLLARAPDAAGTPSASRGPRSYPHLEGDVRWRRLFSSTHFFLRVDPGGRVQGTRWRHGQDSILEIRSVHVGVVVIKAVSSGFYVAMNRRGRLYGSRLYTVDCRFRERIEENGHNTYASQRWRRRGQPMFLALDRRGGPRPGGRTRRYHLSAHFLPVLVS
MLL AF4-AF9 inh = inhibitors of human MLL-AF4/AF9 interaction; AID 651704; inhibition, % at 10 µM; AlphaScreen, biotin-AF4 peptide binding to FLAG-AF9; P42568; 0.47% of 350,000 active;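 active = every replicate reaching a set inhibition limit, whatever the replicate mean, cut at about 25% in these data; inconclusive = mean inhibition reaches that limit but some replicates miss it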;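 note: 0% = plate neutral control median and 100% = total signal loss; the record names both 10 and 1 µM as test concentration; the first replicate is given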
Target sequence (P42568 whole entry, looked up): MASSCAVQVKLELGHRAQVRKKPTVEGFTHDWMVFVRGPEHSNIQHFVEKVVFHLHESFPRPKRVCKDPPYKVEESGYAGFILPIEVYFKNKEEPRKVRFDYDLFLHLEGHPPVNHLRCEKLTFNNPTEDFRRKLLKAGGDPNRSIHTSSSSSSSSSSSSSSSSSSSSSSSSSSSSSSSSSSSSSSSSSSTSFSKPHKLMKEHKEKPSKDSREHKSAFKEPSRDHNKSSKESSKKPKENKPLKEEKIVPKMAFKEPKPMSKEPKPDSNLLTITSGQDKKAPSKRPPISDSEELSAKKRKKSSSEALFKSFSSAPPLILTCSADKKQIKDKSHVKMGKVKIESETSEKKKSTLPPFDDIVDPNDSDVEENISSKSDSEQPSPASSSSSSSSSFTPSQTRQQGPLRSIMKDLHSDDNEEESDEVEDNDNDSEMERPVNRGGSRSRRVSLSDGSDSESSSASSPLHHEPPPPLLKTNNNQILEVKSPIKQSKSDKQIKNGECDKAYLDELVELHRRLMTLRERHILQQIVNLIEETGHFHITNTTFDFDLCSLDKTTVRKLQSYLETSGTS
An asterisk follows results filed as active; i = inactive; u = inconclusive; x = not tested or not shown; & = joins results of further samples.

SMILES	Ecoli growth	UCH37 inh	Vif A3G	HNF4A DNA FP	RanGTP-Imp inh	FGF22 binding	MLL AF4-AF9 inh
COCCNCCOc1ccc(C)cc1[N+](=O)[O-]	0.691	3.2	u	1.8	5.1	i	-2.6
CC1CN(C(=O)COC(=O)[C@@H]2CC(O)CN2S(=O)(=O)c2ccc3c(c2)OCCO3)CC(C)O1 (some centres undefined)	0.7	1.9	-8.8%	1.9	-2.8	i	0.7
Fc1cccc(Cl)c1CSc1nnnn1-c1ccc2c(c1)OCO2	0.692	0.0	10.6%	6.4	4.4	i	0.6
O=C(OCC(=O)C12CC3CC(CC(C3)C1)C2)c1ccc(CO)cc1	0.7	3.1	x	2.7	x	i	-2.0
Cc1cc(OCC(=O)NCC(c2cccs2)N2CCOCC2)ccc1C(C)C (centres undefined)	0.625	0.6	1.9%	0.7	4.6	i	2.3
O=C1C[C@@H](c2ccc(O)cc2)Oc2cc(O)cc(O)c21	x	-2.9	2.9%	-5.2	-5.3	i	-1.9
COc1cccc(CNC(=O)CCC2CCCN(C(=O)C3=CC(=O)CC(C)(C)O3)C2)c1 (centres undefined)	0.675	2.1	-7.7%	1.6	4.5	x	-3.4
CCN(CC)S(=O)(=O)c1c(OC)cc(C)c(Cl)c1C	0.683	2.0	u	-0.3	1.6	i	-2.5
CC1(C)CC(N=Cc2c(O)n(Cc3ccc4c(c3)OCO4)c(=O)c3ccccc23)CC(C)(C)N1	0.699	10.0	-17.8%	0.2	3.7	i	15.1
CCN(CC(=O)Nc1c(F)cccc1F)C(=O)CCN1C(=O)c2cccc([N+](=O)[O-])c2C1=O	0.679	-1.3	1.2%	-4.4	-17.8	x	2.0
Cc1noc(C)c1S(=O)(=O)Nc1ccccc1OC(F)(F)F	0.671	-0.5	-4.5%	-2.9	-2.5	i	-1.5
O=C(COC(=O)c1ccc2[nH]c3c(c2c1)CCCC3)Nc1ccccc1	0.704	-221.0	x	0.0	8.9	i	-1.7
Cc1cccc(NCCC(=O)c2ccc(Br)cc2)c1	0.668	2.9	-7.1%	-5.9	-4.7	i	6.8
CC1CCCC(C)N1C(=O)CSc1nnc(COc2ccccc2)n1-c1ccccc1 (centres undefined)	0.675	-2.8	24.1%	3.9	0.6	x	x
Cc1c(Cl)cnc(NC(=O)CSc2nnnn2C)c1Cl	0.696	-2.4	x	-3.1	x	i	0.1
CC(=O)c1ccc(N2CCN(C(=O)c3nn(Cc4ccccc4)c(=O)c4ccccc34)CC2)cc1	0.692	5.5	-6.8%	0.8	-4.0	i	4.2
O=C(C=C(O)c1ccc(Cl)cc1)C(=O)NNC(=O)C(O)(c1ccccc1)c1ccccc1	0.689	4.9	2.9%	0.4	x	i	-2.6
Cc1ccc(C)c(N(C(=O)CNC(=O)c2ccco2)C(C(=O)NC2CCCCC2)c2ccncc2)c1 (centres undefined)	0.704	-1.0	x	1.3	5.9	i	-2.2
Cc1ccc(OCC(=O)Nn2cnc3ccccc32)cc1	0.706	3.4	-6.0%	-2.9	-1.3	x	x
Cc1ccccc1N1C(=O)C(Oc2ccc(Cl)cc2)C1CNC(C)(C)C (centres undefined)	0.639	3.5	u	3.5	2.3	i	6.7
COc1ccc(-c2cc(C(=O)N3CCN(c4ccccc4)CC3)no2)cc1	0.634	-1.2	x	1.0	u	i	2.0
COc1cc(OC)c(OC)cc1CN1CCN(S(=O)(=O)c2ccc(NC(C)=O)cc2)CC1	0.691	1.4	0.9%	-0.5	-3.2	i	6.3
CC(C)c1ccccc1NC(=O)COC(=O)/C=C/c1cccc([N+](=O)[O-])c1	0.696	0.8	0.2%	2.1	-2.4	i	-0.4
COc1ccc(-n2nc3c(c2NC(=O)c2c(F)cccc2Cl)CS(=O)C3)cc1 (centres undefined)	0.732	4.8	19.0%	-3.2	2.7	i	0.9
COc1ccc(N/C=C2/CCCCC2=O)cc1	0.681	9.2	-2.4%	2.1	x	x	x
Cn1c(SCc2nc3ccccc3[nH]2)nnc1-c1ccccn1	0.676	3.0	-0.6%	-0.4	u	x	x
CC(Sc1ccccc1)C(=O)Nc1ccc(N2CCOCC2)cc1 (centres undefined)	0.721	1.0	6.2%	-4.9	u	x	x
C=C1CC2(OC1=O)c1ccccc1CCc1ccccc12	x	x	3.9%	0.8	x	i	-0.9
O=c1[nH]cnc2cc(Cl)ccc12	0.716	-3.4	1.0%	-2.3	1.0	x	x
CN(C)S(=O)(=O)Nc1ccc(NS(=O)(=O)N(C)C)c(S(=O)(=O)c2ccccc2)c1	0.715	6.5	12.5%	-1.6	-3.3	x	x
CCOc1ccc(NC(=O)CN(C)C(=O)C2CC(=O)N(CCc3ccccc3)C2)cc1OCC (centres undefined)	0.637	2.1	-2.4%	5.5	6.5	i	3.9
CCn1c(C(C)NS(=O)(=O)c2ccc(Cl)cc2)n[nH]c1=S (centres undefined)	0.67	-1.1	7.0%	1.2	-1.6	i	-2.6
CSc1ccc(CN(C)C(=O)COc2ccc(C(=O)c3ccccc3)cc2)cc1	0.66	2.7	x	0.7	1.6	i	0.1
CC(=O)Nc1ccc2c3c(cccc13)CC2	0.689	2.2	x	-2.2	3.8	x	x
Cc1ccc(C)c(OCc2cc(C(=O)NC(c3ccccn3)C(F)(F)F)no2)c1 (centres undefined)	0.699	1.4	2.1%	2.0	2.7	i	0.6
Cn1nc(C(=O)NC2CCCCCC2)ccc1=O	0.651	-1.3	-4.9%	10.5	3.6	x	x
CCOC(=O)C1=C(N)N2C(=O)C(C)SC2=C(C(=O)OCC)C1c1ccc(O)cc1 (centres undefined)	0.709	4.2	x	-3.4	-4.7	i	4.8
O=C(NN=C1CCCCCCCCCCC1)c1ccccc1F	0.717	1.6	x	0.4	5.1	x	x
CCC1CCCCN1CCCNC(=O)C1CCN(c2nnc(-n3cccc3)s2)CC1 (centres undefined)	0.67	5.2	x	2.5	3.8	i	8.8
O=c1c(Cc2ccccc2O)c(O)nc2n1CCCS2	0.786	6.5	22.5%	1.7	2.2	i	0.2
Cc1cc(NC(=O)CSc2nnc(-c3ccncc3)n2C)n(-c2ccccc2)n1	0.745	1.1	-3.1%	-2.8	1.9	i	-1.9
CCOC(=O)c1ccc(Nc2cc(C)nc(N3CCOCC3)n2)cc1	0.698	-16.6	-6.4%	2.5	0.9	x	x
Oc1ccc(Nc2nc(-c3ccccc3O)nc3ccccc23)cc1	0.588	4.6	x	-1.3	-2.9	i	1.8
Cc1noc(C)c1-c1ccc(C(=O)NCCN2CCOCC2)c2occc12	x	x	x	5.6	x	i	0.5
Fc1ccccc1C1c2[nH]c3ccccc3c2CCN1CCCn1cccn1 (centres undefined)	0.69	-7.3	-4.9%	-2.6	-0.2	i	12.9

Single records (already shown). Order of screens: Ecoli growth	UCH37 inh	Vif A3G	HNF4A DNA FP	RanGTP-Imp inh	FGF22 binding	MLL AF4-AF9 inh
`Cc1cc(NC(=O)CSc2nnc(-c3ccncc3)n2C)n(-c2ccccc2)n1` across the screens: 0.745	1.1	-3.1%	-2.8	1.9	i	-1.9
`O=c1c(Cc2ccccc2O)c(O)nc2n1CCCS2` across the screens: 0.786	6.5	22.5%	1.7	2.2	i	0.2

The list continues:
SMILES	Ecoli growth	UCH37 inh	Vif A3G	HNF4A DNA FP	RanGTP-Imp inh	FGF22 binding	MLL AF4-AF9 inh
CC[n+]1c(C)sc2c(C)cc(C)cc21	0.716	1.4	11.3%	-1.6	-2.2	x	x
Cn1c(Cc2ccccc2)n[nH]c1=S	0.708	2.5	-11.8%	0.2	1.2	i	-0.9
OC(COCC(F)(F)C(F)(F)C(F)(F)C(F)F)Cn1c2ccc(Cl)cc2c2cc(Cl)ccc21 (centres undefined)	x	x	28.2%	0.3	-2.9	x	x
O=C1CCCC2=C1C(c1ccsc1)CC(=O)N2c1nnc(SCc2ccccc2)s1 (centres undefined)	x	x	6.4%	5.2	x	i	0.2
COc1ccc(Nc2cc(C(=O)NCCCN3CCOCC3)c3ccccc3n2)c(OC)c1	0.704	4.7	-4.2%	2.9	-6.3	x	x
CCc1sc(C(=O)NCCCN2CCCC2=O)cc1Br	0.73	4.1	3.3%	2.2	-3.7	i	-3.6
O=C(NCCCO)c1nnc(Cc2c(F)cccc2Cl)o1	0.667	1.8	1.0%	-2.0	-2.5	x	x
Cc1cc(C)nc(SCC(=O)c2c(N)n(C)c(=O)n(C)c2=O)n1	0.731	2.5	-1.0%	-0.2	5.4	x	x
Cc1c(C)n(Cc2ccc(F)cc2)c2ccc(C(=O)NCCCN3CCOCC3)cc12	0.649	-4.7	x	3.4	4.6	i	17.6
CCn1c(=NC(=O)c2cccc(N3C(=O)CCC3=O)c2)sc2c(OC)ccc(OC)c21	0.721	-7.4	-210.4%	1.1	0.0	i	-1.8
Nc1ccc(/C=C/C(=O)c2cccs2)cc1	0.66	-7.8	-0.6%	18.9	-47.4	x	-5.0
C=CCOC(=O)C1=C(C)OC(N)=C(C#N)C1c1ccoc1 (centres undefined)	0.675	4.8	16.9%	14.0	6.8	x	x
Cc1ccc([N+](=O)[O-])cc1NC(=S)NC(=O)c1c(Cl)cnn1C	0.764	6.9	9.7%	3.3	-5.4	i	-5.8
CSCCNC(=O)c1ccc(C(C)(C)C)cc1	0.663	3.8	-8.5%	-3.0	u	x	x
Fc1ccc(C2CC(c3ccco3)=Nc3ccccc3S2)cc1 (centres undefined)	0.682	0.1	7.4%	-4.1	3.0	i	-4.1
CN(CC(=O)Nc1cccnc1)S(=O)(=O)c1ccccc1	0.734	-3.6	3.4%	-3.5	4.5	x	x
CCN(Cc1ccccc1)c1ccc(/C=N/NC(=S)NC(C)C)cc1	x	x	-13.1%	1.7	-2.0	x	x
CC(NC(=S)Nc1ccccc1Cl)C(c1cccs1)N1CCCC1 (centres undefined)	0.692	4.2	x	-0.6	-2.6	i	0.6
COc1ccc(NC(=O)COC(=O)CO/N=C(\C)c2ccc3c(c2)OCO3)cc1S(N)(=O)=O	x	x	7.5%	3.6	x	i	1.3
COc1cc(CNCCSc2nnnn2C)cc(Br)c1OCc1ccccc1	0.666	6.4	2.9%	4.2	-3.4	i	-12.9
COc1cc(C(=O)Nc2c(C(=O)O)[nH]c3ccccc23)cc(OC)c1OC	0.656	4.9	2.8%	-2.7	3.3	i	2.6
O=C(NCCc1c[nH]c2ccccc12)c1cc(S(=O)(=O)N2CCCCC2)ccc1N1CCOCC1	0.752	3.9	9.5%&-4.7%	-0.9	-0.8	x	x
O=C(c1[nH]c(C(F)(F)F)nc1-c1ccccc1)N1CCCN(Cc2ccc(F)cc2)CC1	x	x	x	12.2	x	i	2.5
C=CCNC(=S)NNC(=O)c1cccn(Cc2ccc(Cl)cc2)c1=O	0.688	-2.9	20.7%	0.3	0.9	x	x
CCCCCc1ccc(-c2cn(Cc3ccc(C(=O)c4ccccc4)cc3)nn2)cc1	0.807	3.0	x	5.6	0.8	i	-1.9
Cc1cc(C)c(C#N)c(SCC(O)CS(=O)(=O)Cc2ccccc2)n1 (centres undefined)	0.627	1.3	5.2%	-2.9	0.4	i	5.7
Cc1nnc(C)c2c(C)n(-c3ccc(Br)cc3)c(C)c12	0.722	-0.7	u	x	-0.9	x	x
Cc1c(Cl)cnc(NC(=O)COC(=O)C2CCCC2)c1Cl	0.701	4.8	x	-6.0	x	i	1.0
COCCNc1nc(N)c([N+](=O)[O-])c(NCCO)n1	0.686	-8.3	25.0%	-0.8	-5.4	x	x
Cn1c(CCN2CCOCC2)nc2cc(NC(=O)c3cccs3)ccc21	0.683	-1.1	-12.5%	0.0	0.7	i	-0.2
Cn1nnnc1SCC(=O)N1CCN(c2ccc(Cl)cc2)CC1	0.697	2.2	3.0%	2.9	2.0	x	x

Only part of the results is shown. The share of hits here may be higher or lower than overall.
